# YopH PTP inh: blocks Yersinia enterocolitica YopH tyrosine phosphatase; inhibition, %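 (about 10 µM by stock and volumes)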; 0.16% of 140,000 active; fluorescence Ex485/Em525;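 active = inhibition of 50% or more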;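 note: controls were vehicle for no effect and minimum signal wells for full effect; inactives centre near -20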
# RecA intein inh: blocks M. tuberculosis RecA intein splicing; AID 2221; P9WHJ3; cell-free RecA intein splicing, fluorescence; inhibition, %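 (about 9 µM by stock and volumes)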; 0.75% of 290,000 active; in the data active = inhibition above about 30%; inconclusive = no clear call, values can overlap the other calls;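 note: 0% = vehicle wells and 100% = reference inhibitor control wells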
# Target sequence (P9WHJ3 whole entry, looked up): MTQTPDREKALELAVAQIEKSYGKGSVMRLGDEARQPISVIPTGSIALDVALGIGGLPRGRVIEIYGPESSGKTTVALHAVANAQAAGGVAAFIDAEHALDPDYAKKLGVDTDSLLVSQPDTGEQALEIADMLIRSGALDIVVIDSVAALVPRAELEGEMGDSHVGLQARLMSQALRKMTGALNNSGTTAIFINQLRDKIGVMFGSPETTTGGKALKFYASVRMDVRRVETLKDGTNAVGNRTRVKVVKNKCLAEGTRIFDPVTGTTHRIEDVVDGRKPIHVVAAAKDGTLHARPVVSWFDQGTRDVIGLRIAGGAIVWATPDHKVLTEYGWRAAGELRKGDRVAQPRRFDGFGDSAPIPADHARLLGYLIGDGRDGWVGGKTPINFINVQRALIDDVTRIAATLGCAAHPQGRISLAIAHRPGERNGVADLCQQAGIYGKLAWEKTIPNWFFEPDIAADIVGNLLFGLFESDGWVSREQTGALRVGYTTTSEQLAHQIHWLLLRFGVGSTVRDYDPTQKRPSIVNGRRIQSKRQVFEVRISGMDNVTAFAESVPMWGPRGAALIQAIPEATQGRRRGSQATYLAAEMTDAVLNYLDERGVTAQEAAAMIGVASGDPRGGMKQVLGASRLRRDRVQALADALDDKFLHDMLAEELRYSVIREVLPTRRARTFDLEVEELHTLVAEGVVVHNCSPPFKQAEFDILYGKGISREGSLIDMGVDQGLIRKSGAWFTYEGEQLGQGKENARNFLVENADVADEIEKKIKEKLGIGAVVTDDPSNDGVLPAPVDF
# Arbovirus anti: antivirals against arbovirus infection; arbovirus infection cell-based antiviral screen; inhibition, % at 10 µM; 0.37% of 200,000 active; AID 1251;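 active = inhibition from about 30%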;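 note: bluetongue infection of BSR cells; cell survival read as ATP light after 72 h; 0% = infected wells without compound and 100% = uninfected wells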
# Mtb H37Rv: M. tuberculosis H37Rv growth inhibitors, H37Rv strain (AID 1626); one-dose inhibition, % at 10 µM; IC50 in µM for titrated hits; 0.95% of 220,000 active; M. tuberculosis H37Rv growth inhibition; higher % means a stronger effect;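 active = confirmed in a dose series; inconclusive = inhibition above 80% but not taken into the dose series; inactive = below 80% or under 30% at every dose of the series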;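 note: bacteria incubated seven days before Alamar blue readout; 0% = bacteria only wells and 100% = bacteria with antibiotic wells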
# Mtb betalactam: beta-lactam sensitization of Mtb H37Rv; M. tuberculosis H37Rv growth with meropenem, percent inhibition; hits of this screen are not shown here; inhibition, % at 25 µM; AID 434955; 0.27% of 330,000 active;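 active = about 74% or more and at least 40 points above the plate without the antibiotic, then above 30% in a dose series; inconclusive = first-round hits that could not be retested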;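 note: growth measured after seven days incubation then overnight dye step; 0% = bacteria only wells and 100% = bacteria with antibiotic; twin plates without the antibiotic show which effects depend on it; some results filed as inactive read as strong as hits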
# Arbovirus anti repeat: second read-out of Arbovirus anti, no call of its own (marks repeat the call); inhibition, %; measured here: 10K subset replicate screen; many hits read low in the repeat;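 first of two repeat runs on a subset; 0% = infected and 100% = uninfected wells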
# Numbers without * were called inactive; ? = inconclusive; nt = no result given.
SMILES,YopH PTP inh,RecA intein inh,Arbovirus anti,Mtb H37Rv,Mtb betalactam,others
CCN1CCc2nc3sc(C(=O)Nc4cccnc4Cl)c(N)c3cc2C1,nt,-36,nt,nt,6,
Cc1c(NC(=O)C(=O)/C=C(/O)c2ccccc2)c(=O)n(-c2ccccc2)n1C,-36,-3.2,-3,-8%,2,
Cc1ccc(C(=O)NNC(=O)CSc2nnc(CNc3ccc(F)cc3)n2C)cc1,nt,0.3,6,1%,-5,
O=S(=O)(c1ccccc1)N1CCN(CCO)CC1,nt,0.2,nt,nt,2,
CCOC(=O)N1CCC(NS(=O)(=O)c2ccc3c(c2)C(C)(C)C(=O)N3C)CC1,-20,nt,7,-10%,2,
CCC(CC)C(=O)Nc1c2cnn(-c3ccccc3)c2nc(=O)n1-c1ccccc1,-8,0.2,12,nt,6,
Cc1cc2cc(CN(Cc3cccs3)Cc3nnnn3CC3CCCO3)c(=O)[nH]c2cc1C (configuration not stated),-35,2.1,-22,5%,13,
CCCn1c2ccccc2c2cnn(CC(=O)NCCOC)c(=O)c21,nt,-1.3,nt,nt,1,
C[C@@]12CCC=C[C@H]1[C@H](c1ccc(C(F)(F)F)cc1)N(Cc1ccccc1)C2=O,nt,28,nt,11%,3,
CC1CCCCN1S(=O)(=O)c1ccc(C(=O)N(CCCN(C)C)c2nc3ccc(Br)cc3s2)cc1 (configuration not stated),nt,12,nt,nt,15,
OCCN(CC#CC(O)(c1ccccc1)c1ccccc1)CCO,nt,-1.6,nt,0%,1,
CC1Cc2ccccc2N1C(=O)c1cnc2ccccn2c1=O (configuration not stated),-40,-1.2,3,-5%,-3,
CCOc1cc(/C=N/NC(=O)c2ccc(O)cc2)ccc1Oc1nc(Cl)ncc1F,nt,5.1,4,5%,1,
CCC(=O)NC(c1ccc(OC)cc1)c1c(O)ccc2ccccc12 (configuration not stated),nt,-2.4,-14,2%,-8,
O=C(/C=C/c1ccco1)NC(=S)Nc1cc(-c2nc3ccccc3s2)ccc1Cl,-16,nt,-21,2%,3,
COc1ccccc1CNc1nc2nc3c(c(=O)n2[nH]1)CCC3,-22,2.3,0,0%,5,
O=C(CN(CC1CCCO1)C(=O)CCC(=O)Nc1nccs1)NCc1ccccc1 (configuration not stated),-15,-0.6,1,-3%,-5,
CCOc1ccc(NC(=O)[C@@H]2CCC(=O)N2C2OC(=O)c3ccccc32)cc1 (some centres not stated),nt,-0.7,nt,nt,-4,
Cc1ccc(C(=O)Nc2cccc(-c3ccc(N4CCOCC4)nn3)c2)cc1[N+](=O)[O-],nt,-0.3,nt,nt,-8,
CC(C)[C@H](N)c1nnc2n1N=C(c1ccc(Cl)cc1)CS2,nt,-1.7,nt,nt,3,
CCSc1cc(C)nc2ncnn12,-3,1.5,4,-10%,-11,
CNC(=S)N/N=C(\C)c1ccc(C(C)(C)C)cc1,-9,-0.5,6,54%,88,
O=C(NNc1ncnc2c1cnn2-c1cccc(Cl)c1)c1ccco1,nt,0.5,nt,nt,90,
O=C(CCc1ccccc1)NC(=S)Nc1ccccc1Br,nt,7.2,-8,8%,14,
COc1cccc(NC(=O)C(=O)NCC(c2ccco2)N2CCc3ccccc3C2)c1 (configuration not stated),nt,4.0,nt,nt,-2,
CN(CC(=O)NCc1ccco1)S(=O)(=O)c1ccc2c(c1)n(C)c(=O)c(=O)n2C,-21,-0.4,6,-5%,6,
COc1ccc(Nc2nc(N3CCCC3)c3ccccc3n2)cc1,-27,24,-47,?,99,
CC(NCc1ccc(S(N)(=O)=O)cc1)C(=O)N1c2ccccc2CC1C (configuration not stated),nt,0.2,nt,-3%,-5,
Cc1ccnc(NS(=O)(=O)c2ccc(NC(=O)c3ccc(S(=O)(=O)N(C)C)cc3)cc2)n1,nt,-0.4,14,-6%,-1,
COC(=O)Cc1ccc(NC(=S)N2CCN(C)CC2)cc1,nt,-5.8,7,78%,3,
COCCCNC(=O)c1ccccc1NS(=O)(=O)c1ccc(C)cc1,-10,0.1,-1,-2%,-20,
COCCn1c(C)cc(C(=O)COC(=O)c2cc3c(s2)CCC3)c1C,-20,-4.7,0,-8%,8,
CC(=O)c1cccc(NC(=O)CCC(=O)Oc2ccc(C)cc2)c1,nt,-2.1,nt,nt,0,
COc1ccccc1NC(=O)CSCc1nc2ccccc2[nH]1,4,-3.1,4,-1%,-3,
CCC(NC(=O)N(Cc1ccccc1)Cc1ccc2c(c1)OCO2)(C(F)(F)F)C(F)(F)F,-58,7.0,-7,-4%,7,
CC[C@@H](C)[C@H](NS(=O)(=O)c1ccc(C)cc1)C(=O)N1CCC(C(=O)NCC(=O)O)CC1,-20,-0.3,9,-5%,-17,
CCC(CC)CN1CCN=C1N(C)C,nt,-1.5,nt,nt,-2,
O=C(CSc1ccc(Cl)cc1)NN=C1CCCCCC1,nt,-0.5,-1,42%,-4,
CCN1CCC(N2CCN(c3ccc(Cl)cc3)CC2)CC1,nt,-3.1,nt,nt,6,
Cc1ccc(-c2nc3ccccc3o2)cc1NC(=S)NC(=O)c1cccs1,0,-1.8,-11,0%,7,
Cc1cc(C)n(-c2nc(SCCN(C)C)c3c4c(sc3n2)COC(C)(C)C4)n1,-6,1.7,-14,15%,1,
O=C(Nc1cccc(C(F)(F)F)c1)c1scc2c1OCCO2,nt,-4.1,0,2%,-5,
CN1CCN(c2ccc(S(=O)(=O)N3CCCCC3)cc2NC(=O)/C=C/c2ccc(Cl)c([N+](=O)[O-])c2)CC1,nt,1.0,nt,nt,85,
COc1ccc2nc(SCc3ccccc3)nc(C)c2c1,-14,-0.7,3,4%,9,
Cc1cnc(C(=O)OCC(=O)c2ccc(F)c(F)c2)cn1,nt,3.7,nt,nt,0,
O=C(Nc1cccnc1)c1cc(-c2cc(Cl)ccc2O)n[nH]1,nt,-0.3,nt,8%,7,
CCc1ccccc1N(CC(=O)NC(C)(C)C)C(=O)CCC(=O)Nc1ccccn1,nt,-0.1,nt,nt,-2,
COCCNC(=O)c1ccc2ccccc2n1,-37,-1.8,4,-2%,-2,
COc1ccc(NC(=O)CN(C)C(=O)c2cn(-c3ccccc3)nc2-c2cccs2)cc1,nt,4.0,nt,nt,-3,
Cc1ccc(SCc2nc(-c3ccccc3)no2)cc1,16,9.5,-1,19%,0,
O=C(COc1ccc(Cl)cc1Cl)NN1C(=O)/C(=C\c2ccc(Cl)cc2)SC1=S,nt,-0.2,-4,-2%,2,
Cn1/c(=N/NC(=O)c2cccc(OC(F)F)c2)sc2ccccc21,-27,-2.6,-11,?,99,
COc1ccc(S(=O)(=O)CC(=O)Nc2nnc(C(F)(F)F)s2)cc1,nt,1.8,nt,nt,100,
C1=CC(c2cc3ccccc3o2)OC(CCc2ccccc2)C1 (configuration not stated),nt,13,nt,nt,1,
Cc1cccc(NC(=O)C2CCCN2C(=O)Oc2ccccc2)c1 (configuration not stated),2,3.4,0,-11%,7,
CCOCCCNC(=O)c1cn(C)c2ccc(S(=O)(=O)N3CCCC3)cc2c1=O,nt,-0.4,nt,nt,-10,
COc1ccc(N2CCN(S(=O)(=O)CCNC(=O)C34CC5CC(CC(C5)C3)C4)CC2)cc1,nt,2.0,nt,nt,7,
O=C(OCC(=O)N1CCN(S(=O)(=O)c2ccc(Cl)cc2)CC1)c1cc(Br)ccc1O,nt,-5.3,nt,nt,5,
CCCOc1ccc([C@@H]2C3CN(C(=O)OCC)CC=C3C(C#N)=C(N)C2(C#N)C#N)cc1OC (some centres not stated),-11,22,-1,3%,7,
CCOC1OC2C(CO)OC(n3cnc4c(N)ncnc43)C2O1 (configuration not stated),9,3.3,2,2%,-1,Arbovirus anti repeat=4

# The last 4 records of the section before are carried over, then new ones follow:
SMILES,YopH PTP inh,RecA intein inh,Arbovirus anti,Mtb H37Rv,Mtb betalactam,others
COc1ccc(N2CCN(S(=O)(=O)CCNC(=O)C34CC5CC(CC(C5)C3)C4)CC2)cc1,nt,2.0,nt,nt,7,
O=C(OCC(=O)N1CCN(S(=O)(=O)c2ccc(Cl)cc2)CC1)c1cc(Br)ccc1O,nt,-5.3,nt,nt,5,
CCCOc1ccc([C@@H]2C3CN(C(=O)OCC)CC=C3C(C#N)=C(N)C2(C#N)C#N)cc1OC (some centres not stated),-11,22,-1,3%,7,
CCOC1OC2C(CO)OC(n3cnc4c(N)ncnc43)C2O1 (configuration not stated),9,3.3,2,2%,-1,Arbovirus anti repeat=4
NC(=O)CS(=O)(=O)c1ccc(Cl)cc1,nt,2.7,-4,0%,-5,
CC1CC(C(F)(F)F)n2ncc(C(=O)O)c2N1 (configuration not stated),-23,nt,-1,-4%,-1,
COc1ccc(-c2nnn(CC(=O)NCc3cccs3)n2)cc1OC,-38,1.0,2,-10%,5,
CCC(=O)c1cn([C@H](CCC(OC)OC)CC(=O)OC(C)(C)C)cc1CC,nt,0.7,nt,nt,-2,
COc1ccc(OC)c(NC(=S)NN2CCN(C)CC2)c1,-37,-1.4,6,-7%,-7,
O=C(COc1ccccc1)Nc1cccc(-c2nnc(-c3ccccc3)o2)c1,nt,nt,nt,15%,79,
c1cc2nncn2nc1N1CCCC1,-40,6.4,6,-2%,7,
CCc1cc2c(NC(Cc3ccccc3)C(=O)O)ncnc2s1 (configuration not stated),nt,0.0,nt,nt,0,
O=C(O)c1cc(NCc2ccc(F)cc2)ccc1N1CCOCC1,-37,-4.5,3,3%,-6,
CCCN(C(=S)Nc1ccccc1)C1CCS(=O)(=O)C1 (configuration not stated),-20,-2.8,3,-1%,-10,
CC(Oc1ccccc1)c1ccnc2nc(/N=C/N(C)C)nn12 (configuration not stated),-36,nt,7,3%,-5,
CCC(=O)N1CCc2cc(S(=O)(=O)CCC(=O)NC(C)CC)ccc21 (configuration not stated),nt,-1.1,2,-3%,-8,
O=C(Nc1ccccn1)C(F)(F)C(F)(F)C(F)(F)C(F)(F)C(=O)Nc1ccccn1,-7,0.4,4,5%,-4,
Nc1ccc2c(c1)CC(=O)c1ccccc1S2,-39,-0.5,-7,10%,0,
COc1ccc(S(=O)(=O)NCc2cc(=O)n(C)c(=O)n2C)cc1C,nt,-1.0,nt,nt,-3,
Cc1ccc(S(=O)(=O)NNC(=O)CC#N)cc1,nt,0.3,nt,-22%,-6,
COc1ccc(-c2[nH]ncc2CN(C)CCc2c(C)n[nH]c2C)c(F)c1,nt,-0.1,4,5%,-1,
COc1ccccc1NC(=O)C1CCCN1S(=O)(=O)c1ccc(Cl)cc1 (configuration not stated),nt,-0.2,nt,nt,3,
CC(C)c1ccc(C(=O)NNC(=O)C2CC=CCC2C(=O)O)cc1 (configuration not stated),10,0.1,7,2%,2,
CC1(C)Cc2c(c(N3CCOCC3)nc3snc(NC(=O)c4ccccc4)c23)CO1,-11,0.4,-2,8%,-21,

# No new results follow: entries from further up.
SMILES,YopH PTP inh,RecA intein inh,Arbovirus anti,Mtb H37Rv,Mtb betalactam,others
CCN1CCc2nc3sc(C(=O)Nc4cccnc4Cl)c(N)c3cc2C1,nt,-36,nt,nt,6,
Cc1c(NC(=O)C(=O)/C=C(/O)c2ccccc2)c(=O)n(-c2ccccc2)n1C,-36,-3.2,-3,-8%,2,

# Following part
SMILES,YopH PTP inh,RecA intein inh,Arbovirus anti,Mtb H37Rv,Mtb betalactam,others
CCOc1ccc(C(=S)N2CCCC2)cc1,1,-0.3,13,3%,-1,
COc1ccc(Nc2cc(C(=O)NCCCN3CCOCC3)c3ccccc3n2)c(OC)c1,-25,nt,7,-5%,0,
Cc1cc(C)n(-c2ccc(C(=O)Nc3ccc(C)c(S(=O)(=O)N4CCOCC4)c3)cc2)n1,nt,-2.3,nt,7%,-1,
CCO[C@H]1OC(C(=O)N2CCOCC2)=C[C@@H](c2ccc3c(c2)OCO3)[C@@H]1CCCO,nt,-1.4,3,-1%,-6,
COc1ccc(C2c3ccc(O)cc3Oc3ncn4nc(-c5cccnc5)nc4c32)cc1OC (configuration not stated),nt,-2.1,nt,7%,-2,
CC(NC(=O)c1cccs1)c1ccc(Br)cc1 (configuration not stated),nt,0.5,nt,nt,-1,
N/C(=N\OC(=O)COc1ccc(Br)cc1)c1cccnc1,-17,-1.1,-2,16%,2,
CCOC(=O)C(=O)Nc1nnc(COc2ccccc2)s1,nt,1.7,1,4%,-8,
CC1=CCC2C(=O)N(c3ccc(C)cc3)C(=O)C2C1 (configuration not stated),1,-1.4,3,-9%,5,
COc1ccc(/C=N/n2c(C)nc3sc(C)c(C)c3c2=O)cc1OC,nt,-0.8,8,0%,1,
CN=C1SC(CC(=O)Nc2ccc(F)cc2F)C(=O)N1/N=C/c1ccc(OC(F)F)c(OC)c1 (configuration not stated),nt,-1.6,-9,7%,3,
CC(C)CNC(=O)C(=O)NN=C1CCCCCC1,-30,1.0,-2,-7%,-2,
COc1ccc(NC(=O)CSCC(=O)Nc2ccccc2N2CCCC2)cc1,nt,-6.0,nt,nt,-4,
CC(=O)c1ccc(N2CCN(c3ccc4cc(S(=O)(=O)N5CCC(C)CC5)ccc4n3)CC2)cc1,nt,-0.8,nt,nt,-1,

# These rows are one share of the data; count on the stated rates, not on these rows.
